UCH37 inh = inhibitors of human deubiquitinating enzyme UCH37. purified proteasome/UCH37, Ub-AMC cleavage fluorescence. inhibition, % (test concentration not listed). 330,000 tested, 0.33% active. AID 588478;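 active = mean of two replicates above 20%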;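 note: 0% = compound-free wells with enzyme and 100% = wells lacking proteasome; stock transfer was 100 nL into about 20 µL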
Target sequence (Q9Y5K5 whole entry, looked up): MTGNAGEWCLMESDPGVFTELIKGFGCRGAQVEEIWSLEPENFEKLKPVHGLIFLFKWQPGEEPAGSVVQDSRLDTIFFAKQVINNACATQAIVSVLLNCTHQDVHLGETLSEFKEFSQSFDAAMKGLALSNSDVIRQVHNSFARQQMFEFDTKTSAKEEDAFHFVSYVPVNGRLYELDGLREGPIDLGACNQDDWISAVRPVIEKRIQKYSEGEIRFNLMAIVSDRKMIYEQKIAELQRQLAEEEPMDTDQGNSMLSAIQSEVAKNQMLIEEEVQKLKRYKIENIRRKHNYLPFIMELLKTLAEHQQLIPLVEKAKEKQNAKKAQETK
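System: Proteasome-associated human UCH37 deubiquitinase; Input: 0.15 nM proteasome in added enzyme buffer; Also added: Ub-AMC substrate from 1 µM stock; Incubation: 30 min compound-proteasome preincubation then 25 min substrate reaction, room temperature; Detection: fluorescence, ex 355 nm, em 460 nm; Read-out: % inhibition of Ub-AMC cleavage fluorescence; Benchmarks: no-proteasome and no-compound wells.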
HNF4A DNA FP = change in binding of human HNF4 alpha to DNA; HNF4a-FITC DNA binding, fluorescence polarization, 1 h; activity change, % at 10 µM; 360,000 tested, 0.3% active; in the data active = activity change above about 30%, passing the limit was not always enough;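 note: controls were the assay level and a saturating level of protein; the project sought stronger binding though the title names inhibitors; some compounds called inactive have numbers as strong as hits; positive values seem to mean higher polarization but the record does not say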
AF4-AF9 inh = inhibitors of human MLL-AF4/AF9 interaction. P42568. AlphaScreen, biotin-AF4 peptide binding to FLAG-AF9. inhibition, % at 10 µM. 350,000 tested, 0.47% active;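 active = every replicate reaching a set inhibition limit, whatever the replicate mean, cut at about 25% in these data; inconclusive = mean inhibition reaches that limit but some replicates miss it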;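 note: 0% = plate neutral control median and 100% = total signal loss; the record names both 10 and 1 µM as test concentration; the first replicate is given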
Target sequence (P42568 whole entry, looked up): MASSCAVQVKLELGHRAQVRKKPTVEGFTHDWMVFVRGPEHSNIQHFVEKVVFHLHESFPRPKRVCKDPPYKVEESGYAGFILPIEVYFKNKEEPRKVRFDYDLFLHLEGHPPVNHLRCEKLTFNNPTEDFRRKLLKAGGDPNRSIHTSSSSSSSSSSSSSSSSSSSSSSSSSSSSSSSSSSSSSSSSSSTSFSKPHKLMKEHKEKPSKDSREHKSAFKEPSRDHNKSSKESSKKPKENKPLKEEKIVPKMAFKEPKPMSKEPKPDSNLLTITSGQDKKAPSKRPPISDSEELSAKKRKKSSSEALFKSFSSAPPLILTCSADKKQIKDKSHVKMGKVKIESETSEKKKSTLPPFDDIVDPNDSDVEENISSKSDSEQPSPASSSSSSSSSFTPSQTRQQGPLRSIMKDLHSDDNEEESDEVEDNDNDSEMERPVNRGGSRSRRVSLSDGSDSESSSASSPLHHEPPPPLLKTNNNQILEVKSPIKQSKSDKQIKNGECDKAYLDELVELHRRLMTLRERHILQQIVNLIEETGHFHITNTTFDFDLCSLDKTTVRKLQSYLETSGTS
Vif TR-FRET = inhibitors of Vif binding to APOBEC3G peptide, primary screen, biochemical, TR-FRET, GST-Vif 1-94, biotin-A3G peptide, dose response retest (AID 1117319) | TR-FRET GST-Vif / biotin-A3G peptide binding; higher % means a stronger effect; test concentration not given here; strong numbers were not always called active | one-dose inhibition, %; IC50 in µM for titrated hits | 260,000 tested, 0.57% active;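 active = above the screen mean plus three standard deviations and confirmed in dose response; inconclusive = results disagree or hit not tested in dose response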;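 note: Vif residues 1-94 fused to GST binding biotinylated APOBEC3G peptide 110-148; 0% = full assay without inhibitor and 100% = GST in place of GST-Vif; retest series ran down from 100 µM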
RanGTP-Imp inh = disruptors of Ran-importin-beta complex formation – biochemical, FRET, CFP-Ran, YFP-importin-beta, homogeneous, primary screen | cell-free CFP-Ran/YFP-importin-beta FRET ratio | AID 2216 | 300,000 tested, 1.1% active | inhibition, % (no concentration beside the values);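 active = most replicates above 15%; inconclusive = exactly half above 15%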;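 note: 0% = DMSO wells and 100% = Ran loaded with GDP instead of GTP; wells of about 40 µL received 100 nL stock; the first replicate is given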
FGF22 binding = shifts melting point of recombinant human FGF22; Q9HCT0; recombinant FGF22 thermal shift, SYPRO orange fluorescence; percent of sucrose octasulfate shift, DMSO zero; calls only at 9.99 µM; 340,000 tested, 1.5% active; AID 651658;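 active = melting point raised past a set limit in the mean and every replicate; inconclusive = no clear call; three in four hits are not shown here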
Target sequence (Q9HCT0 whole entry, looked up): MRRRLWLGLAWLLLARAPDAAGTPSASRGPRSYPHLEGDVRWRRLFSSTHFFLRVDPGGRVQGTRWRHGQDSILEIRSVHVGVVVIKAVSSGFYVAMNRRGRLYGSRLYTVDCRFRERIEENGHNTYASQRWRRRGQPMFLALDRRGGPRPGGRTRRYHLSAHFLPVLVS
Ecoli growth = blocks Escherichia coli growth | OD600 absorbance (no concentration beside the values) | OD600, 23 h; active compounds read low | 330,000 tested, 0.21% active;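 active = OD600 absorbance below the run mean of sample wells minus 3.6 SD, in any replicate, cut at about 0.56 in these data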;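 note: stock transfer was 300 nL into about 60 µL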
* marks the source's active call; other numbers are inactive results; i = inactive; ? = inconclusive; · = not tested or not shown. The list is partial; the hit share may differ from the screen's.

nr | Ecoli growth | HNF4A DNA FP | UCH37 inh | AF4-AF9 inh | RanGTP-Imp inh | Vif TR-FRET | FGF22 binding | molecule
1 | 0.7 | 3.8 | -4.9 | 0.9 | -0.6 | · | i | O=c1c2ccccc2nc2oc3ccccc3n12
2 | 0.68 | -0.2 | 4.6 | -2.6 | 0.6 | 3% | i | COc1ccc(NC(=O)CC2C(=O)N(c3ccc(Cl)cc3)C(=S)N2CCc2ccccn2)cc1 (stereo unspecified)
3 | 0.66 | 7.6 | 1.8 | 3.1 | · | · | i | CCN(CC)CCNC(=O)c1ccc(NC(=O)c2cccc(S(=O)(=O)N3CCCCCC3)c2)cc1
4 | 0.67 | -2.8 | 0.2 | 0.0 | ? | · | i | CCCC(C)c1nnc(NC(=O)C2CC(=O)N(CCc3ccc(F)cc3)C2)s1 (stereo unspecified)
5 | 0.69 | 2.0 | -33 | 0.6 | -2.4 | · | i | COC(=O)c1cc(OC)c(OC)cc1NC(=O)Nc1ccccc1F
6 | 0.69 | 0.7 | 2.0 | · | 1.6 | ? | · | CCCSc1nc2[nH]ncc2c(=O)[nH]1
7 | 0.73 | 1.7 | 6.3 | · | 5.7 | 3% | · | COc1ccc(NC(=O)c2ccco2)cc1NC(=O)c1cccs1
8 | 0.68 | -6.0 | 1.0 | 0.3 | 3.8 | 6% | i | O=C(O)CC(CC(=O)Nc1ccc(F)c(Cl)c1)c1ccc(Cl)cc1Cl (stereo unspecified)
9 | 0.77 | 2.2 | -0.6 | -2.8 | 0.4 | 0% | i | Cc1cccc(C2CC(c3ccccc3)Nc3ncnn32)c1 (stereo unspecified)
10 | 0.65 | -2.8 | 1.8 | 6.2 | -1.8 | 4% | i | O=C(NCc1ccccc1)C1CCCN1S(=O)(=O)c1ccc(Cl)cc1 (stereo unspecified)
11 | 0.7 | 2.0 | 5.4 | -4.0 | -2.7 | -9% | i | COc1ccccc1C(=O)n1nc(-c2ccco2)nc1SC
12 | 0.64 | 3.9 | 3.5 | -2.2 | 3.7 | -2% | i | CC1(N(O)/C=C2\C=CC=CC2=O)CCCCC1=O (stereo unspecified)
13 | 0.64 | 2.9 | 3.9 | -9.1 | 2.8 | · | i | COc1cc(Cn2nnc3ccccc32)ccc1O
14 | · | 3.2 | · | -0.6 | · | · | i | CC(C)C[C@H]1CN([C@@H](CC(C)C)CN2CCC[C@H]2CN2C(=O)C(=O)NC[C@@H]2Cc2ccccc2)C(=O)C(=O)N1CCc1ccccc1
15 | 0.66 | 0.1 | 4.2 | -4.9 | 0.7 | -4% | i | CC(C)CNC(=S)N1CCN(c2nc3ccccc3s2)CC1
16 | 0.7 | -2.3 | 2.4 | -6.4 | -9.8 | ? | i | CNC(=O)COC(=O)Cc1ccc(Cl)cc1
17 | · | -0.3 | · | 1.6 | 1.2 | · | i | CC/C(=N/NC(=O)c1ccc2c(c1)OCO2)c1ccccc1O
18 | 0.65 | 3.4 | 1.5 | · | 0.4 | -1% | · | OCC1CCCN(Cc2ccc(-c3ccccc3)cc2)C1 (stereo unspecified)
19 | 0.71 | 0.5 | 3.9 | · | -2.3 | -1% | · | Brc1cccc(OCCn2ccnc2)c1
20 | 0.72 | 0.3 | 11 | -9.2 | 1.6 | · | i | COc1cccc(/C=C2\SC(=S)N(CCCC(=O)N3CCCC3)C2=O)c1
21 | 0.67 | -0.5 | -18 | 0.9 | -0.2 | · | i | Cc1cc(=O)oc2c(C)c(OCC(=O)NCCCn3ccnc3)ccc12
22 | · | 1.3 | · | -9.2 | 1.9 | · | i | COc1ccc(C(=O)Cn2cnc3ccccc3c2=O)cc1
23 | · | -1.3 | · | -0.7 | 155* | · | i | CCC[n+]1c2ccccc2cc2ccccc21
24 | 0.7 | 1.6 | 12 | 1.2 | -4.0 | -3% | i | Nc1n[nH]c(N)c1N=Nc1ccc(Cl)cc1
25 | 0.69 | -3.0 | 1.0 | 0.1 | -1.4 | -3% | i | CCOC(=O)C1CCN(S(=O)(=O)c2ccc(C)c(C(=O)NC3CCCCC3)c2)CC1

6 entries drawn at random from the list so far:
nr | Ecoli growth | HNF4A DNA FP | UCH37 inh | AF4-AF9 inh | RanGTP-Imp inh | Vif TR-FRET | FGF22 binding | molecule
25 | 0.69 | -3.0 | 1.0 | 0.1 | -1.4 | -3% | i | CCOC(=O)C1CCN(S(=O)(=O)c2ccc(C)c(C(=O)NC3CCCCC3)c2)CC1
10 | 0.65 | -2.8 | 1.8 | 6.2 | -1.8 | 4% | i | O=C(NCc1ccccc1)C1CCCN1S(=O)(=O)c1ccc(Cl)cc1 (stereo unspecified)
1 | 0.7 | 3.8 | -4.9 | 0.9 | -0.6 | · | i | O=c1c2ccccc2nc2oc3ccccc3n12
5 | 0.69 | 2.0 | -33 | 0.6 | -2.4 | · | i | COC(=O)c1cc(OC)c(OC)cc1NC(=O)Nc1ccccc1F
19 | 0.71 | 0.5 | 3.9 | · | -2.3 | -1% | · | Brc1cccc(OCCn2ccnc2)c1
20 | 0.72 | 0.3 | 11 | -9.2 | 1.6 | · | i | COc1cccc(/C=C2\SC(=S)N(CCCC(=O)N3CCCC3)C2=O)c1

Following part
nr | Ecoli growth | HNF4A DNA FP | UCH37 inh | AF4-AF9 inh | RanGTP-Imp inh | Vif TR-FRET | FGF22 binding | molecule
26 | 0.69 | 3.2 | 5.5 | · | 6.2 | 1% | · | Nc1nc(-n2cnnc2)nn1-c1ccccc1
27 | 0.69 | -5.5 | 1.1 | · | 3.5 | -2% | · | CC1CCN(CC(=O)Nc2ccccc2C#N)CC1
28 | 0.69 | 1.6 | -3.6 | -5.0 | 4.7 | -36% | i | COc1ccc(CNC(=O)c2cnc3cc(C)ccn3c2=O)cc1
29 | 0.69 | 0.9 | 3.2 | · | -3.9 | ? | · | COc1ccc(NS(=O)(=O)c2ccc(NC(=S)NC(=O)c3ccc(F)cc3)cc2)nn1
30 | 0.64 | 2.4 | 2.6 | -7.0 | · | · | i | Cc1cccc(C(=O)OCC(=O)N2CCCCCC2)c1O
31 | 0.63 | 0.7 | 1.1 | · | 0.3 | -9% | · | Cc1cc2ncn(-c3ncnc4scc(-c5ccccc5)c34)c2cc1C
32 | 0.62 | 1.0 | 1.2 | -0.8 | -1.4 | · | i | O=C(NCc1ccccc1Cl)C1CCCN1C(=O)Nc1ccccc1 (stereo unspecified)
33 | 0.68 | 4.4 | 5.1 | · | 6.7 | -1% | · | C=CCn1c(Cc2cccs2)nnc1SCC(=O)Nc1ccc(C(=O)OCC)cc1
34 | 0.67 | -0.2 | -123 | 0.7 | -9.2 | · | i | CCN(CC)CCCNC(=S)N(CCCO)Cc1cc2cc3c(cc2[nH]c1=O)OCO3
35 | 0.69 | 7.4 | -1.4 | · | -1.0 | · | i | O=C(NCc1ccc2c(c1)OCO2)c1cc(-c2ccccc2)nn1CC1CC(c2cccnc2)=NO1 (stereo unspecified)
36 | 0.7 | 1.2 | -1.1 | · | ? | -2% | · | C=CCCC(=O)Nc1ccc(COC(=O)N2CCOCC2)cc1
37 | 0.7 | 1.0 | 6.6 | · | -4.5 | -1% | · | O=C(CSc1ncccc1C(=O)O)c1ccccc1
38 | 0.69 | 1.1 | 5.2 | 0.4 | 3.8 | -9% | i | Cc1nonc1NC(=O)c1oc2ccccc2c1C
39 | 0.69 | -3.2 | 4.3 | 0.6 | · | 5% | i | CCOc1ccc(OCCC(=O)N(CC)CC(=O)Nc2ccccc2OC)cc1
40 | · | 7.0 | · | -5.9 | · | · | i | CCN1CCN(C(C(=O)NC2CCCCC2)c2cc3ccccc3o2)CC1 (stereo unspecified)
41 | 0.68 | -0.8 | 1.4 | 3.5 | · | 1% | i | COC(=O)c1cc(Oc2ccc(S(=O)(=O)N3CCOCC3)cc2[N+](=O)[O-])cc(C(=O)OC)c1
42 | 0.66 | 2.8 | -56 | 8.3 | -2.4 | · | i | O=C(c1cc(-c2cccs2)nc2ccccc12)N1CCN(c2ccccc2O)CC1
43 | 0.69 | 0.3 | 0.6 | · | -3.1 | 25% | · | CCN(CCNC(=O)C1CC(=O)N(CCc2ccccc2)C1)c1ccccc1 (stereo unspecified)
44 | 0.7 | 4.5 | 3.0 | -1.0 | 3.9 | -1% | i | Cc1cc(NC(=O)CSc2ncc(CO)n2Cc2ccc(F)cc2)no1
45 | 0.74 | -7.1 | 5.4 | -7.6 | -2.3 | 12% | · | COC(=O)c1c(NC(=O)CN2C(=O)NC3(CCC(C(C)(C)C)CC3)C2=O)sc2c1CCCCC2 (stereo unspecified)
46 | · | 2.6 | · | 0.6 | · | -4% | i | CN(C(=O)COC(=O)C12CC3CC(CC(Cl)(C3)C1)C2)C1(C#N)CCCCC1
47 | 0.72 | 1.3 | 1.6 | 2.9 | · | 14% | i | O=C(Nc1ccccc1N1CCOCC1)c1ccc(S(=O)(=O)NCc2ccco2)cc1
48 | 0.74 | 2.1 | 2.6 | -4.7 | -3.4 | 23% | i | COc1ccc(C2C(C(=O)Nc3cccnc3)=C(C)Nc3nc(-c4ccco4)nn32)cc1 (stereo unspecified)
49 | 0.65 | 2.5 | 4.8 | · | 0.6 | -2% | · | c1ccc(N2CCN(c3cnccn3)CC2)nc1
50 | 0.77 | -3.4 | 5.8 | -0.4 | 0.1 | · | i | COc1ccc(CNC(=O)[C@H](C)N2C(=O)N3CCc4c([nH]c5ccccc45)[C@@]3(C)C2=O)cc1OC
51 | 0.71 | -1.1 | 3.2 | 1.7 | 1.8 | 8% | i | COc1ccc(OC)c(NC2c3ccccc3C(=O)N2Cc2ccc3c(c2)OCO3)c1 (stereo unspecified)
52 | · | -1.4 | · | 10 | · | · | i | CCN(CC)C(=O)c1cccc(-c2csc(C(NC(C)=O)c3ccc(F)c(F)c3)n2)c1 (stereo unspecified)
53 | 0.64 | 3.7 | 3.2 | 2.6 | ? | 19% | i | COc1ccc(Br)c(-c2nc(CS(=O)(=O)c3ccc(F)cc3)no2)c1
54 | 0.7 | -2.4 | 4.5 | 1.8 | · | 10% | i | CNC(=O)C1CC(=O)N(c2ccc(OCC(=O)Nc3ccc(OC)cc3)cc2)C1 (stereo unspecified)
55 | 0.71 | 1.7 | -0.1 | 5.7 | -3.8 | · | i | O=C(COC(=O)c1ccccc1C(=O)c1ccccc1)NCCc1ccc(Cl)cc1Cl
56 | 0.71 | 0.4 | 4.9 | 3.6 | 5.1 | 6% | i | CCn1c(Cn2nnc(-c3ccccc3)n2)nnc1SCC(=O)Nc1cccc(C(C)=O)c1
57 | 0.7 | 4.7 | -2.0 | · | -0.9 | -4% | · | CC(=O)N(CCN(C(C)=O)c1ccccc1)c1ccccc1
58 | 0.73 | -0.3 | 0.0 | · | 0.0 | -7% | · | CCc1cc2c(NCC(=O)O)ncnc2s1
59 | 0.75 | -2.6 | 1.7 | · | -1.2 | 8% | · | COc1ccc(C(=O)OC(C(=O)c2ccccc2)c2ccccc2)cc1 (stereo unspecified)
60 | 0.77 | 5.8 | 5.0 | 4.8 | -0.2 | ? | i | COc1ccccc1-n1c(SCC(=O)Nc2cccc(C)c2)nc2c(c1=O)SCC2
61 | 0.68 | 1.1 | 2.4 | · | 0.6 | 0% | · | COCCn1c(SCC(=O)Nc2cccc(S(N)(=O)=O)c2)nc2ccccc21
62 | 0.64 | 1.4 | 2.4 | · | 0.3 | -7% | · | O=C(N1CCCC1)n1c(Cc2ccccc2)nc2ccccc21
63 | 0.65 | 1.5 | 2.8 | · | 0.9 | -14% | · | COc1cc(Cl)ccc1NC(=S)N(CCCN1CCOCC1)Cc1cn(C)c2ccccc12
64 | 0.67 | -5.4 | 3.3 | · | 1.1 | 6% | · | C=CCn1c(SCC(=O)Nc2ccc3c(c2)OCO3)nnc1-c1ccccc1O
65 | 0.71 | 1.9 | -0.2 | · | 3.1 | 8% | · | CC1(c2ccc3noc(-c4ccc(Cl)cc4)c3c2)OCCO1
